Rce1 inhib – yeast Rce1p protease inhibitors, primary screen, biochemical, fluorescence, cell-free homogeneous; yeast membranes, quenched prenylated peptide cleavage fluorescence; calls only; 290,000 tested, 0.27% active; AID 2563, 2010;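 active = fall in fluorescence gain of 50% or more versus controls, with final raw signal at or below 3038400; inconclusive = same 50% fall but final raw signal above 3038400; inactive = fall in fluorescence gain under 50%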;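 note: plate controls were neutral control wells for no effect and wells lacking membranes for full effect; tested at 10 µM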
Target sequence (Q03530 whole entry, looked up): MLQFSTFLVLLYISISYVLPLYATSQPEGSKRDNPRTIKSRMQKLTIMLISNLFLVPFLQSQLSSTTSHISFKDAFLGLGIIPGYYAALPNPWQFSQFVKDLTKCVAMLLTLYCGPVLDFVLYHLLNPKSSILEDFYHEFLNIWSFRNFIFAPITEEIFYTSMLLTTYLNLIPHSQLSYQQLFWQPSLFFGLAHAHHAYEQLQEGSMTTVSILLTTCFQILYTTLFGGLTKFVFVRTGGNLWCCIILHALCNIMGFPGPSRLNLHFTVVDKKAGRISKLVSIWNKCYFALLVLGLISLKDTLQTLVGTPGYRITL
UUG fidelity – modulators of yeast start codon fidelity, primary screen, whole organism, S. cerevisiae, single point, plate reader | S. cerevisiae UUG-firefly luciferase reporter, luminescence/redox ratio | activity score, % at 18.7 µM | 350,000 tested, 0.13% active | AID 602363, 2012;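 active = replicate mean at a twofold rise or more, about +100% in these data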;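 note: firefly luciferase made from a UUG start codon reports start codon fidelity; reporter light over untreated wells divided by growth signal over untreated wells; some hits fall short of that in this replicate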
MT1-MMP act inh – blockers of MT1-MMP proenzyme processing, primary screen, HT1080 RFP-PRO-GFP cells, GFP/RFP fluorescence; 360,000 tested, 0.061% active; GFP/RFP ratio fluorescence, overnight; percent of plate control window, DMSO zero; AID 651647, 2012; GFP/RFP ratio change, % at 20 µM;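 active = GFP/RFP ratio change of at least 30% with cell ATP level not reduced by more than half and red fluorescence within 50% of control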; note: strong numbers were not always called active
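Assay system: HT1080 RFP-PRO-GFP cells. Benchmarks: DMSO vehicle wells and RFP-L50D-GFP reporter cell wells. Times: overnight cell settling, then overnight compound exposure, 37 °C, 5% CO2. Compound: 20 µM single dose, 1% DMSO. Read-out basis: GFP/RFP fluorescence ratio.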
PABP polyA inh – PABP poly(A) RNA binding inhibitors, primary screen, biochemical, fluorescence polarization, uHTS; 290,000 tested, 1% active; inhibition, % at 35 µM; Polyadenylate-binding protein 1 (Homo sapiens), P11940; AID 2014, 2009;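 active = 50% or more with normal probe brightness, or confirmed in later tests; inconclusive = above 50% with abnormal brightness, or retests that disagree; inactive = below 50% or failed in later tests; about a fifth of its hits are not listed in these tables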;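 note: calls also rest on retests at 20 µM and on dose response follow-up; controls were probe without protein and protein plus probe with vehicle; some compounds called inactive have numbers as strong as hits; many hits fall short of the cut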
Target sequence (P11940 whole entry, looked up): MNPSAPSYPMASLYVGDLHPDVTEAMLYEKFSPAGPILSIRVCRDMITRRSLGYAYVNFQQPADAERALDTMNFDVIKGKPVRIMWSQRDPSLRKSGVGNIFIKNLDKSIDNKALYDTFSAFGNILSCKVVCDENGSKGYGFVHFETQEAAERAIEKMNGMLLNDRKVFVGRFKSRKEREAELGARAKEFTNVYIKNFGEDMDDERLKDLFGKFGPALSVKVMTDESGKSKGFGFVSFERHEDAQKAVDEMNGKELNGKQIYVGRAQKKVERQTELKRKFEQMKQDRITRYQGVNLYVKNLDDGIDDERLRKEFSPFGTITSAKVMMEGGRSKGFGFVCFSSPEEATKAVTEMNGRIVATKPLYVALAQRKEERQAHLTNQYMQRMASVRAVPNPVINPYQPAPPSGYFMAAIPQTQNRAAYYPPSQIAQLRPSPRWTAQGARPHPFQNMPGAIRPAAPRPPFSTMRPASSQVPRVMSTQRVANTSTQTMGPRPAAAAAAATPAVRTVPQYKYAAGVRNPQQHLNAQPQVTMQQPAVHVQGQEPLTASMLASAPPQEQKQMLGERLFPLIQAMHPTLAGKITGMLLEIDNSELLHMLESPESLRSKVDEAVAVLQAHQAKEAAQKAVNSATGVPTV
CSC inhib – cancer stem cell viability inhibitors, primary screen, luminescence; cancer stem cell-like cells viability; 300,000 tested, 1.1% active; AID 2717, 2010; inhibition, % at 7.5 µM;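 active = mean at 75% or more and at least half the replicates too; inconclusive = mean and replicates disagree; tested in HMLE shEcad cells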;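 note: 0% = median of negative and 100% = median of positive control wells; the first replicate is given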
eIF4H inh – human eIF4H binding inhibitors, primary screen, translation initiation inhibitor project, biochemical, uHTS, fluorescence polarization. 290,000 tested, 0.94% active. eIF4H fluorescence polarization binding assay. Eukaryotic translation initiation factor 4H (Homo sapiens), Q15056. inhibition, % at 35 µM;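 active = 50% or more with normal probe brightness, or confirmed in later tests; inconclusive = above 50% with abnormal brightness, or retests that disagree; inactive = below 50% or failed in later tests; about a fifth of its hits are not listed in these tables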;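 note: calls also rest on retests at 20 µM and on dose response follow-up; 0% = protein and probe with vehicle and 100% = probe without protein; strong numbers were not always called active; many hits fall short of the cut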
HIV Env fusion – inhibitors of HIV-1 Env-driven cell-cell fusion, primary screen, HeLa-JRFL effector, CEM21 target cells, luciferase | 360,000 tested, 1.1% active | inhibition, % at 12.3 µM;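 active = mean replicate inhibition score of at least 50 and every replicate individually at or above 50; inconclusive = only one of the two criteria met; inactive = mean below 50 and not all replicates reaching 50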;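 note: 0% = plate neutral controls and 100% = maraviroc near 300 nM; one replicate is shown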
MT1-MMP act inh RFP – also measured in MT1-MMP act inh; calls as there; RFP signal change, %; measured here: RFP expression control read;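 0 = vehicle wells; hits needed this value within 50% of zero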
Numbers without * were called inactive; i = inactive; ? = inconclusive; · = no result given; & = joins results of further samples; [ ] = another dose, or the depositor's remark. The order is random. Share with any hit: about 2.9%.

# | Compound | eIF4H inh | HIV Env fusion | Rce1 inhib | MT1-MMP act inh RFP | PABP polyA inh | UUG fidelity | CSC inhib | MT1-MMP act inh
1 | CC1CCCCN1CC(O)COc1ccc(OCC(O)CN2CCCCC2C)cc1 (stereo unspecified) | 18 | -10 | i | -2 | 10 | -17 | -8 | -3
2 | COc1ccc(CNC(=O)CSc2n[nH]c(N)n2)cc1OC | 12 | -2 | i | 1 | 5 | -5 | -1 | -1
3 | Cc1ccc(NC(=O)COc2ccc(/C=N\NC(=O)c3cccnc3)cc2)cc1C | -47 | · | i | -1 | -63 | -11 | 15 | 4
4 | Cc1cc(NC(=O)c2ccc3c(c2)C(=O)N(Cc2cccnc2)C3=O)no1 | 4 | -9 | i | 2 | 7 | -14 | -15 | -1
5 | CC(C)n1c(SCC(=O)Nc2ccc(F)cc2)nnc1C1CC1 | 1 | · | i | 4 | -8 | -5 | -3 | 4
6 | CCc1cccc(NC(=O)CCCn2nc(CC)n3c(cc4occc43)c2=O)c1 | 6 | 6 | i | 3 | 11 | -5 | -9 | -8
7 | CCOc1ccc(NC(=O)CCC(=O)NNC(=O)c2cccc([N+](=O)[O-])c2)cc1 | · | 2 | · | 3 | · | · | -4 | 0
8 | COc1ccc(/C=C/C(=O)O)cc1S(=O)(=O)NCC1CCCO1 (stereo unspecified) | -4 | 5 | i | 3 | 12 | -22 | -10 | 0
9 | Cc1ccc2c(c1)CCCN2C(=O)CSc1ccccc1 | -11 | 0 | i | -1 | 5 | -11 | -7 | -2
10 | CN(c1cccc(NC(=O)c2ccccc2N(Cc2ccccc2)S(C)(=O)=O)c1)S(C)(=O)=O | 2 | 12 | i | -4 | -2 | 7 | -12 | -5
11 | Cc1cc(C)n2nc(SCc3ccc(F)cc3Cl)nc2n1 | 2 | -5 | i | 0 | 1 | -21 | -5 | 0
12 | Cc1cc2cc(C)c3nnc(SCC(=O)Nc4ccc(S(=O)(=O)N5CCCCC5)cc4)n3c2cc1C | -9 | 1 | i | -2 | -3 | · | -5 | 3
13 | Cc1cc(C)cc(OCCCOc2cccc3cccnc23)c1 | -12 | · | i | -6 | -8 | -13 | 24 | -3
14 | CCCn1c(C)cc(C(=O)CN2C(=O)c3cccc(N)c3C2=O)c1C | 85* | · | · | 1 | 95* | -5 | -4 | -3
15 | CCCCS(=O)CC(O)COCC (stereo unspecified) | 2 | -20 | · | 5 | -5 | -17 | -7 | -1
16 | COc1cc(C)ccc1Oc1ncnc(N)c1[N+](=O)[O-] | 4 | 6 | i | 0 | -3 | -12 | -9 | -2
17 | COc1cc2c(cc1OC)C1=C(C#N)COCN1CC2 | 2 | -131 | i | -1 | 26 | 13 | -6 | -7
18 | O=C(c1cc(-c2ccncc2)nc2ccccc12)N1CCN(c2ccccc2O)CC1 | -5 | 5 | i | -1 | 0 | -2 | · | -1
19 | Cc1cc(C)nc(SCC(=O)Nc2ncc(Cc3cccc(Cl)c3)s2)n1 | -6 | · | i | -13 | -6 | -15 | 17 | 1
20 | O=S(=O)(Nc1ccc(-c2ccc(NS(=O)(=O)c3ccccc3)cc2)cc1)c1ccccc1 | · | -3 | · | -6 | · | -6 | · | -5
21 | CCc1nc(N2CCN(C(=O)c3ccccc3)CC2)c2c3c(sc2n1)CCCC3 | 2 | 27 | i | -15 | 3 | -6 | · | -11
22 | CC(C)(C)c1csc(NC(=O)Cn2cnc3ccccc3c2=O)n1 | -8 | · | i | -2 | 11 | · | -5 | 0
23 | CC(C)CCNC(=O)c1c(CSc2ccccc2)noc1C(=O)NCc1ccccc1 | 0 | 1 | i | -6 | 4 | 4 | 48 | -7
24 | Cc1ccc(C(=O)NCCCNC(=O)c2cccnc2)cc1 | -22 | 6 | i | 3 | 4 | -12 | -4 | 3
25 | CCOc1ccc(NC(=O)CN(C)C(=O)c2ccc(N3CCCC3)c([N+](=O)[O-])c2)cc1OCC | · | 4 | i | 1 | · | -3 | 21 | 4
26 | CC(C)(C)c1ccc(S(=O)(=O)NCc2ccc(C(=O)NCc3ccccn3)cc2)cc1 | -1 | 32 | i | 0 | 8 | · | -16 | -1
27 | CCOC(=O)c1nc2nc(C)c(Cl)c(=O)n2[nH]1 | 4 | -53 | · | -1 | 9 | -8 | · | -1
28 | Cc1ccc(N=C/C(C(=O)C(F)(F)F)=C(\O)c2cccs2)cc1 | 2 | -390 | i | -5 | -13 | -59 | 2 | 3
29 | O=C(COc1ccccc1)Nc1ccc(CSc2ccccc2)cc1 | -2 | · | i | 0 | -9 | 9 | -1 | 1
30 | COc1ccc(CNC(=O)[C@H](NC(=O)C2CCN(C(=O)[C@@H](N)CCSC)CC2)C(C)C)cc1 | -7 | · | i | 1 | 17 | 3 | -4 | 3
31 | COc1ccc(OC)c(S(=O)(=O)N2CCC(C(=O)NCC3CCCO3)CC2)c1 (stereo unspecified) | 2 | · | i | -3 | 7 | 1 | -5 | -2
32 | CCC(=O)Nc1cc2c3c(c1)CCC(=O)N3CCC2 | -1 | 5 | i | 2 | -7 | -12 | -6 | -1
33 | Fc1ccc(/C=N/Nc2nccnc2Cl)cc1 | 1 | -80 | i | 1 | -10 | -6 | 31 | 1
34 | CN1CCN(c2oc(-c3ccccc3F)nc2S(=O)(=O)c2ccc(Cl)cc2)CC1 | 9 | · | · | 3 | 18 | -18 | 2 | -2
35 | Cc1cc(C)n(-c2nnc(NC(C)(C)C)nn2)n1 | -13 | -13 | i | 2 | 0 | -16 | -1 | 3
36 | COc1ccccc1N1CCN(C(=O)/C=C/c2cccc([N+](=O)[O-])c2)CC1 | 5 | 12 | i | -1 | 2 | · | -3 | 0
37 | COc1ccc(CCN2CC(C(=O)N3CCC(O)(c4ccccc4)CC3)CCC2=O)cc1 (stereo unspecified) | 2 | 3 | · | 3 | -4 | 29 | -13 | 2
38 | CC(C)c1[nH]nc2c1C(Cc1ccccc1)C(C#N)=C(N)O2 (stereo unspecified) | -1 | -25 | i | 0 | 4 | -4 | -24 | -7
39 | Cc1nn(-c2ccc(F)cc2)c(Cl)c1/C=C(/CCC(=O)O)c1nc2ccccc2s1 | · | -5 | · | 1 | · | -13 | · | 0
40 | NNC(=O)C(=O)Nc1ccc(Cl)c(Cl)c1 | 4 | -16 | i | 0 | 8 | -28 | 2 | 0

Ordered by length of the SMILES (falling): some entries from above
# | Compound | eIF4H inh | HIV Env fusion | Rce1 inhib | MT1-MMP act inh RFP | PABP polyA inh | UUG fidelity | CSC inhib | MT1-MMP act inh
37 | COc1ccc(CCN2CC(C(=O)N3CCC(O)(c4ccccc4)CC3)CCC2=O)cc1 (stereo unspecified) | 2 | 3 | · | 3 | -4 | 29 | -13 | 2
38 | CC(C)c1[nH]nc2c1C(Cc1ccccc1)C(C#N)=C(N)O2 (stereo unspecified) | -1 | -25 | i | 0 | 4 | -4 | -24 | -7
29 | O=C(COc1ccccc1)Nc1ccc(CSc2ccccc2)cc1 | -2 | · | i | 0 | -9 | 9 | -1 | 1
27 | CCOC(=O)c1nc2nc(C)c(Cl)c(=O)n2[nH]1 | 4 | -53 | · | -1 | 9 | -8 | · | -1
33 | Fc1ccc(/C=N/Nc2nccnc2Cl)cc1 | 1 | -80 | i | 1 | -10 | -6 | 31 | 1

Single values from the list:
MT1-MMP act inh RFP with entry 22 → -2
CSC inhib with entry 37 → -13
MT1-MMP act inh with entry 33 → 1

Additional results:
# | Compound | eIF4H inh | HIV Env fusion | Rce1 inhib | MT1-MMP act inh RFP | PABP polyA inh | UUG fidelity | CSC inhib | MT1-MMP act inh
41 | COc1ccccc1C1CCN(c2cc(O)ccc2[N+](=O)[O-])CC1 | -6 | -1 | i | 0 | -2 | -5 | 19 | 10
42 | OC(c1ccccc1)(c1nc(-c2cccc3cccnc23)cs1)C(F)(F)F (stereo unspecified) | · | ? | · | 2 | · | -17 | · | 1
43 | CCO[C@@H]1OC(C(=O)Nc2ccccc2)=C[C@H](c2ccc3c(c2)OCO3)[C@H]1CCCO | -8 | -5[16.7 µM] | i | 1 | 0 | -6&-4 | 11 | 0
44 | CCOC(=O)NNS(=O)(=O)c1cc(Br)ccc1Br | -2 | -64 | i | 0 | -8 | 4 | -8 | 0
45 | Cc1n[nH]c(C)c1CCN(C)Cc1cn(C)nc1-c1ccc2c(c1)OCCO2 | 9 | -17 | i | 1 | -7 | -30 | 0 | -5
46 | CC(C)(C)S(=O)(=O)c1c(C(=O)O)cccc1C(=O)O | -6 | 3 | i | 11 | -4 | -45 | · | 7
47 | COC(=O)[C@@]1(Cc2ccccc2)[C@H]2c3cc(C(=O)N4CCCC4)n(CCSCCO)c3C[C@H]2CN1C(=O)c1ccccc1 | 9 | · | i | · | -13 | · | -14 | ·
48 | CC1=C(C#N)C(NC(=O)C2CC2)(C(F)(F)F)C(=O)N1 (stereo unspecified) | -3 | · | i | 3 | -10 | 7 | 3 | 3
49 | Cc1cccc(C)c1NC(=O)CN(c1ccccn1)S(=O)(=O)c1ccccc1 | -7 | -9 | i | 1 | 4 | -15 | 10 | 2
50 | Cn1ncc(Br)c1C(=O)NC1CCCCCC1 | 1 | -39 | i | 2 | 9 | -16 | · | 0
51 | COc1cc(C(=O)NCC2(c3ccccc3)CCCC2)cc(OC)c1OC | 0 | -6 | i | -1 | -3 | -11 | 65 | -2
52 | COc1ccc(NCC(=O)Nc2ccc(Br)cc2F)c(OC)c1 | 34 | 0 | i | 6 | -5 | -16 | 10 | 15
53 | O=[N+]([O-])c1ccc(Oc2ccc(OCc3ccccc3)cc2)nc1 | -11 | 16 | i | -4 | 9 | -8 | 7 | 3
54 | O=C1Nc2ccccc2C(O)(C(=O)NCc2ccco2)N1c1ccc(Cl)cc1 (stereo unspecified) | 3 | · | i | 1 | 3 | -17 | 1 | -2
55 | Cc1cc(/C=N\NC(=O)c2cccs2)c(C)n1-c1ccc2ncccc2c1 | -7 | · | i | -3 | -10 | -20 | -8 | -6
56 | CCCc1oc(C(=O)O)cc1CN1CCOCC1 | 0 | · | i | 1 | 6 | -8 | -11 | 3
57 | Cc1ccccc1/C=N/Nc1nc2ccccc2c(=O)n1O | 1 | -43 | · | 2 | -8 | · | -12 | 2
58 | CCN(CC)S(=O)(=O)c1cccc(NC(=O)CNc2cccc(S(=O)(=O)N3CCOCC3)c2)c1 | · | · | i | -30 | · | -3 | 3 | 11
59 | COc1ccnc(NCc2ccc(Cl)cc2)c1C#N | -7 | -10 | i | -7 | -5 | -14 | · | -4
60 | N#C/C(=C\c1ccc(Cl)cc1Cl)c1n[nH]c(Cn2cncn2)n1 | 3 | · | i | -1 | -1 | -26 | -15 | -6
61 | O=C(NCCc1ccc(Cl)cc1)C(=O)c1c[nH]c2ccccc12 | 0 | 8 | i | -1 | 5 | · | -7 | -2

Filtered by structure: those above containing a CF3 group.
# | Compound | eIF4H inh | HIV Env fusion | Rce1 inhib | MT1-MMP act inh RFP | PABP polyA inh | UUG fidelity | CSC inhib | MT1-MMP act inh
28 | Cc1ccc(N=C/C(C(=O)C(F)(F)F)=C(\O)c2cccs2)cc1 | 2 | -390 | i | -5 | -13 | -59 | 2 | 3
42 | OC(c1ccccc1)(c1nc(-c2cccc3cccnc23)cs1)C(F)(F)F (stereo unspecified) | · | ? | · | 2 | · | -17 | · | 1
48 | CC1=C(C#N)C(NC(=O)C2CC2)(C(F)(F)F)C(=O)N1 (stereo unspecified) | -3 | · | i | 3 | -10 | 7 | 3 | 3
